TRPML1 inh = qHTS for Inhibitors of the Human Mucolipin Transient Receptor Potential 1 (TRPML1); AID 624415, 2012; TRPML1-inducible cells, Ca2+ dye fluorescence, FDSS; stronger effect = lower value; inhibition of EC80 agonist-evoked calcium signal; activity change, negative = inhibition, % (test concentration not listed); hit rate 0.02% among 390,000; in the data active means activity change below about -50%; inconclusive means about -30% to -50%; inactive means above about -30%;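 also: stimulus is agonist 54-4 at its EC80 concentration; % is scaled to controls: 0 for no effect and ±100 for the full control effect; compound concentration not given in the record; the text of the record puts the active cut at -80%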
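TRPML1-DL cells, Tet-induced overnight (~16 h, 37 °C) at 1,500 cells/well, were loaded with Ca8 no-wash dye plus quencher for 45-90 min at room temperature. Compounds were pinned during FDSS kinetic reading; agonist 54-4 at EC80 (4 uM final) then added.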
Sfp PPTase inh = qHTS Assay for Inhibitors of Bacillus subtilis Sfp phosphopantetheinyl transferase (PPTase). hit rate 3.5% among 310,000. Potency, µM, for the others: max response, negative = inhibition, usual class: inhibitors. Biochemical Sfp PPTase activity, qHTS. 4'-phosphopantetheinyl transferase ffp (Bacillus subtilis), Q9F4F7; active = well fitted inhibition curve with a large enough effect; inconclusive = small, poorly fitted or top-dose-only effect, or another doubt; inactive = no such curve, though single readings can be large or run the other way;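 also: the enzyme is Sfp with the accession as filed and its product quenches rhodamine fluorescence; potency is read from the fitted curve at half-maximal effect; 0% = enzyme reaction without inhibitor and -100% = no enzyme wells; top concentration of the series not given in the record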
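Reaction rates are the 30-min fluorescence difference (ex 525, em 598 nm) in wells containing 15 nM Sfp, 5 uM rhodamine-CoA and 12.5 uM BHQ-2-YbbR at pH 7.6 with 10 mM MgCl2.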
ClpP mod = qHTS Assay for Activators of ClpP; hit rate 1.9% among 340,000; ATP-dependent Clp protease proteolytic subunit (Bacillus subtilis (strain 168)), P80244; Potency, µM (top dose mostly 57.5 µM), inactives show top-dose activity change, negative = active; purified B. subtilis ClpP, FRET peptide cleavage, 20 min; AID 651965, 2013; active = well fitted falling curve with a large enough effect; inconclusive = small, poorly fitted or top-dose-only effect; inactive = no such curve, though single readings can be large or run the other way; also: potency is read from the fitted curve at half-maximal effect; the source files actives as falling curves though it sought activators and does not explain the sign; nearly all actives have a fitted effect of over 65% in size; many hits overshoot -100%
Target sequence (P80244 whole entry, looked up): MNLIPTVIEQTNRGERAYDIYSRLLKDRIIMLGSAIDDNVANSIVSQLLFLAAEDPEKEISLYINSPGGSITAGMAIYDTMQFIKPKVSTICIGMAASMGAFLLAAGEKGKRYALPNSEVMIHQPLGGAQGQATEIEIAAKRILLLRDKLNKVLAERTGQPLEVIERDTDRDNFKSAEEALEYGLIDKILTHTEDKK
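Purified B. subtilis ClpP, 10 microg/mL final in Tris/HCl pH8 with KCl, BSA, glycerol and Tween-20, cleaved an Abz/nitrotyrosine-quenched decapeptide. Fluorescence (ex 320, em 430) was read at 0 and 20 min at room temperature. Delta was normalized to 5.8 microM ADEP and DMSO/no-enzyme controls.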
gsp ag = qHTS for Agonist of gsp, the Etiologic Mutation Responsible for Fibrous Dysplasia/McCune-Albright Syndrome: qHTS. hit rate 0.13% among 340,000. Potency, µM (top dose mostly 76.9 µM), without a hit: at the highest dose activation (cAMP increase), usual class: activators. gsp mutant cells, cAMP HTRF, 30 min; control for the full effect not named in the record; active = well fitted activation curve with a large enough effect; inconclusive = small, poorly fitted or top-dose-only effect, or another doubt; inactive = no such curve, though single readings can be large or run the other way; cell line not stated here;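 also: phosphodiesterase inhibitor Ro 20-1724 added with compounds to block cAMP breakdown; potency is read from the fitted curve at half-maximal effect; nearly all actives have a fitted effect of over 60% in size; about a fifth of the inactives were tested at one dose only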
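Cells stably selected in G418 were plated at 2000/well, grown 16-24 hr, then given compounds in DMSO with the PDE inhibitor […] (300 uM solution added) for 30 min at 37C; cAMP was read by HTRF.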
gsp antag = qHTS for Antagonists of gsp, the Etiologic Mutation Responsible for Fibrous Dysplasia/McCune-Albright Syndrome: qHTS; AID 624288, 2012; hit rate 0.4% among 340,000; Potency, µM (top dose mostly 76.9 µM), for the others: at the highest dose activity change, negative = inhibition, usual class: inhibitors; gsp-mutant cells, cAMP HTRF, 30 min; control for the full effect not named in the record; active = falling curve of any shape with a large fitted effect; inconclusive = falling curve, mostly with a smaller effect; inactive = flat or rising curve; cell line not stated here;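 also: intracellular cAMP measured with PDE inhibitor Ro 20-1724 present during compound exposure; potency is read from the fitted curve at half-maximal effect; % is scaled to controls: 0 for no effect and ±100 for the full control effect; nearly all actives have a fitted effect of over 65% in size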
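Measurement of cellular cAMP by homogeneous time-resolved fluorescence following a 30 min compound exposure at 37C. The PDE inhibitor […] was present throughout; the assay buffer was DPBS with 0.05% BSA and 0.005% Tween 20.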
TRPV1 potentiator = HTS Assay for Compounds that Act as Potentiators of the Vanilloid Receptor 1; Transient receptor potential cation channel subfamily V member 1 (Homo sapiens), Q8NER1; TRPV1-expressing cells, Fluo-8 calcium influx, capsaicin EC20 potentiation; host cell line not named in the record; control for the full effect not named in the record; potentiation, % at 8.33 µM; hit rate 0.02% among 320,000; active means potentiation above 80%; inconclusive means 30% to 80%; inactive means below 30%; also: 0% is about no effect
Target sequence (Q8NER1 whole entry, looked up): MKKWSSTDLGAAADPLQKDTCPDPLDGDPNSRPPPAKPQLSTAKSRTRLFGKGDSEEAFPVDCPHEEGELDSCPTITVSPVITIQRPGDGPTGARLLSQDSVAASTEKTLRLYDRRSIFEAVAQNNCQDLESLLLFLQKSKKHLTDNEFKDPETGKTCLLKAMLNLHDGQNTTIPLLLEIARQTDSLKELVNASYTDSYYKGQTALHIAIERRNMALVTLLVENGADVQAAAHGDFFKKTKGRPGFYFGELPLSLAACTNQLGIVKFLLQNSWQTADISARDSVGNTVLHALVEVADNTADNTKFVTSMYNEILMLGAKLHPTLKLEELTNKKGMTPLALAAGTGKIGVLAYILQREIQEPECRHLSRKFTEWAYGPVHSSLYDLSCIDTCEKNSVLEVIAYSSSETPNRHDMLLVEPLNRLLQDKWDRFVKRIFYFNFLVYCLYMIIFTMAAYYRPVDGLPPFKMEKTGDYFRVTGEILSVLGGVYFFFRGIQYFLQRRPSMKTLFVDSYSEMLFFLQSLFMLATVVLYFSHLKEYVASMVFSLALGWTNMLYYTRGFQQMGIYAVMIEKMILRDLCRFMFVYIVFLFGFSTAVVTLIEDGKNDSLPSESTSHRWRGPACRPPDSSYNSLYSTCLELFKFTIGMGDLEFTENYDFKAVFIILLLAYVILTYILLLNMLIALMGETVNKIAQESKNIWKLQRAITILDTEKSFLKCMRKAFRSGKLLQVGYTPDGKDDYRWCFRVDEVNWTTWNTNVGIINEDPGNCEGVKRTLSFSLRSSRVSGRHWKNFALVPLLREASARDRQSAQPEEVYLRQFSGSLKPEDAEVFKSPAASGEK
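TRPV1-expressing cells were cultured overnight at 35.5C and loaded with Fluo-8 calcium dye for 40 to 90 min at room temperature. After a 10 s baseline, compound was added and calcium influx was read kinetically for 3 min (ex 480/em 520 nm).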
Menin-MLL FL inh = qHTS Assay for Inhibitors Targeting the Menin-MLL Interaction in MLL Related Leukemias: Competition With Fluorescein Labeled MLL-derived Peptide. Fluorescence polarization, fluorescein-MLL peptide displacement from menin. FP activity change, % at 61.4 µM. 290,000 tested, under 10 active. AID 1766, 2009; inconclusive = falling polarisation curve, or a change in total fluorescence; inactive = total fluorescence flat and polarisation flat or rising; no compound was filed as active; the % refers to the polarisation; negative = inhibition;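 also: % of control where 0% means no effect; inhibitors lower the polarisation; unlabelled MLL peptide was the positive control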
Starred values were filed as active, the others as inactive; & = joins results of further samples; [ ] = another dose, or the depositor's remark.

Results for COc1cc2c(cc1O)[C@H](Cc1ccc(Oc3cc(C[C@@H]4NCCc5cc(OC)c(O)cc54)ccc3O)cc1)NCC2 ?
Sfp PPTase inh: -16%; TRPV1 potentiator: 14; Menin-MLL FL inh: 6.3

How did Cc1nc(NCCc2ccc(F)cc2)c2nnn(Cc3ccccc3)c2n1 do in these assays?
TRPML1 inh: -6; Sfp PPTase inh: 8%; gsp ag: 0%; gsp antag: 12%; TRPV1 potentiator: inconclusive; Menin-MLL FL inh: -1.9

Results for COc1ccc(C2(C(=O)Nc3cc(C)on3)CCOCC2)cc1 ?
TRPML1 inh: -8; Sfp PPTase inh: 16%; ClpP mod: -1.4%; gsp ag: inconclusive; gsp antag: 9%; TRPV1 potentiator: -1; Menin-MLL FL inh: -0.9

Results for CCOC(=O)c1cc2c(=O)n3ccccc3nc2n(CCOC)c1=NC(=O)c1ccncc1 ?
TRPML1 inh: -9; Sfp PPTase inh: 10%; ClpP mod: 13µM*; gsp ag: 0%; gsp antag: -6%; TRPV1 potentiator: -12; Menin-MLL FL inh: 4.1

What do the screens show for `COC(=O)c1cc(C(=O)OCC(=O)Nc2ccc(N3CCOCC3)cc2)cc([N+](=O)[O-])c1`?
TRPML1 inh: 18; ClpP mod: -1.0%; gsp ag: -42%[inhibitor]; gsp antag: -4%

What do the screens show for `Cn1c(=O)c2[nH]c(CCCc3nc4ccccc4[nH]3)nc2n(C)c1=O`?
TRPML1 inh: -4; ClpP mod: -0.1%; gsp ag: 16%[15.4 µM]; gsp antag: 13%

What do the screens show for `N#Cc1ccc(OCc2nnc(SCC(=O)N3CCCc4ccccc43)n2-c2ccccc2)cc1`?
TRPML1 inh: -3; Sfp PPTase inh: 12%; ClpP mod: -2.7%; gsp ag: -3%; gsp antag: -13%; TRPV1 potentiator: 3; Menin-MLL FL inh: 0.4

How did CC(=O)c1c(C)n(C)c2ccc(OC(=O)c3ccc([N+](=O)[O-])cc3)cc12 do in these assays?
TRPML1 inh: -12; Sfp PPTase inh: 5%; ClpP mod: 1.6%; gsp ag: -4%; gsp antag: 16%; TRPV1 potentiator: 10; Menin-MLL FL inh: 1.2

How did O=C(O)CCC(=O)N1N=C(c2ccc(Br)cc2)CC1c1ccc(Br)cc1 (stereo not given) do in these assays?
TRPML1 inh: 16; Sfp PPTase inh: 16%; gsp ag: 8%; gsp antag: inconclusive; TRPV1 potentiator: 13; Menin-MLL FL inh: 1.8

What do the screens show for `O=C(Nc1ccc(S(=O)(=O)NCc2ccco2)cc1)c1ccc2ccccc2n1`?
TRPML1 inh: 5; Sfp PPTase inh: -14%; ClpP mod: 1.1%; gsp ag: 3%[15.4 µM]; gsp antag: inconclusive; TRPV1 potentiator: -8; Menin-MLL FL inh: 0.0

Results for O=C(/C=C/c1cccc(F)c1)OCC(=O)N1CCCC1 ?
TRPML1 inh: -10; ClpP mod: -3.5%; gsp ag: -3%[15.4 µM]; gsp antag: 2%

Results for COC(=O)CSc1ccc2nnc(CCNS(=O)(=O)c3ccccc3)n2n1 ?
TRPML1 inh: -10&-7; Sfp PPTase inh: 22%; ClpP mod: -17%&-17%; gsp ag: inconclusive; gsp antag: 3%; TRPV1 potentiator: 3; Menin-MLL FL inh: 2.4

How did COn1c(-c2ccccc2)nc2ccc(Cl)cc21 do in these assays?
TRPML1 inh: -1; Sfp PPTase inh: -2%; ClpP mod: -3.1%; gsp ag: -6%; gsp antag: -9%; TRPV1 potentiator: -43; Menin-MLL FL inh: 0.2

What do the screens show for `Cc1ccn(C(=O)c2ccc(NC(=O)CC(C)C)cc2)n1`?
TRPML1 inh: 20; Sfp PPTase inh: 17%; ClpP mod: -8.6%; gsp ag: 1%; gsp antag: 1%; TRPV1 potentiator: -2; Menin-MLL FL inh: -3.0

Results for CCOc1cc2[nH]c(=S)n(CCCC(=O)NCc3ccccn3)c(=O)c2cc1OCC ?
TRPML1 inh: -12; Sfp PPTase inh: -9%; ClpP mod: -0.5%; gsp ag: -5%; gsp antag: -16%; TRPV1 potentiator: -11

What do the screens show for `COc1ccc(NS(=O)(=O)c2cccc(C(=O)NCc3ccccn3)c2)cc1`?
TRPML1 inh: -2; ClpP mod: -20%; gsp ag: 6%; gsp antag: 10%; TRPV1 potentiator: 2

How did COc1cc(C(Nc2ccc(S(=O)(=O)N3CCC(C)CC3)cc2)C(=O)NCC2CCCO2)cc(OC)c1OC (stereo not given) do in these assays?
TRPML1 inh: 10; Sfp PPTase inh: 5%; ClpP mod: -0.8%; gsp ag: 19%[15.4 µM]; gsp antag: -16%; TRPV1 potentiator: 5; Menin-MLL FL inh: 6.2

How did Cc1cccn2c(=O)c(C=O)c(NCc3ccccc3)nc12 do in these assays?
TRPML1 inh: 33; Sfp PPTase inh: 14%; ClpP mod: 4.0%; gsp ag: -13%; gsp antag: -7%; TRPV1 potentiator: -4; Menin-MLL FL inh: -0.1

Results for N#C/C(=C/c1ccc(-c2ccc(Br)cc2)o1)C(=O)NC1CCCCC1 ?
TRPML1 inh: 1; Sfp PPTase inh: -2%; ClpP mod: 0.1%; gsp ag: 3%[15.4 µM]; gsp antag: 5%; TRPV1 potentiator: 5; Menin-MLL FL inh: 0.0

How did COC(=O)[C@]1(Cc2ccccc2)N[C@H](CN(C)S(=O)(=O)c2ccc(C)cc2)[C@@H]2C(=O)N(Cc3ccccc3)C(=O)[C@@H]21 do in these assays?
TRPML1 inh: 10; ClpP mod: 0.7%; gsp antag: -18%

Among those listed so far, 2 have an NH in an aromatic ring:
What do the screens show for `Cn1c(=O)c2[nH]c(CCCc3nc4ccccc4[nH]3)nc2n(C)c1=O`?
TRPML1 inh: -4; ClpP mod: -0.1%; gsp ag: 16%[15.4 µM]; gsp antag: 13%

Results for CCOc1cc2[nH]c(=S)n(CCCC(=O)NCc3ccccn3)c(=O)c2cc1OCC ?
TRPML1 inh: -12; Sfp PPTase inh: -9%; ClpP mod: -0.5%; gsp ag: -5%; gsp antag: -16%; TRPV1 potentiator: -11

Other entries follow:
Results for CCOc1ccc(S(=O)(=O)N2CCN(Cc3ccc4c(c3)OCO4)CC2)cc1Cl ?
TRPML1 inh: -6; Sfp PPTase inh: -11%; ClpP mod: 0.5%; gsp ag: -3%[15.4 µM]; gsp antag: -1%; TRPV1 potentiator: 25; Menin-MLL FL inh: -1.0

Results for O=[N+]([O-])c1ccc(N2CCN(c3ccccc3Cl)CC2)cn1 ?
TRPML1 inh: -10; Sfp PPTase inh: 17%; gsp ag: 8%[15.4 µM]; gsp antag: 9%; TRPV1 potentiator: 5; Menin-MLL FL inh: -3.7

Results for COC(=O)CC1(c2cccc3ccccc23)C(=O)c2ccccc2C1=O ?
TRPML1 inh: 21; Sfp PPTase inh: -2%; ClpP mod: -1.2%; gsp ag: 17%; gsp antag: -5%; TRPV1 potentiator: 3; Menin-MLL FL inh: 2.7

How did O=C(CSc1nc2ccccc2o1)Nc1ccc(N2CCOCC2)c(Cl)c1 do in these assays?
TRPML1 inh: 18; Sfp PPTase inh: -3%; ClpP mod: -5.6%; gsp ag: -46%[inhibitor]; gsp antag: -26%; TRPV1 potentiator: 14; Menin-MLL FL inh: -2.4

Results for CCNC(=S)NNC(=O)CSc1nc2ccccc2n1C ?
TRPML1 inh: -2; Sfp PPTase inh: -6%; ClpP mod: -2.7%; gsp ag: -4%[15.4 µM]; gsp antag: 1%; TRPV1 potentiator: 13; Menin-MLL FL inh: -2.0

How did COc1ccc(OC)c(NC(=O)CSc2n[nH]c(-c3cccnc3)n2)c1 do in these assays?
TRPML1 inh: 9; Sfp PPTase inh: 16%; gsp ag: -2%[15.4 µM]; TRPV1 potentiator: -8; Menin-MLL FL inh: 3.3

What do the screens show for `COc1cccc(CC(=O)OCc2csc(CC(=O)Nc3ccccc3C)n2)c1`?
TRPML1 inh: 2; ClpP mod: 2.3%; gsp ag: -24%; gsp antag: -8%; TRPV1 potentiator: -5

How did CNS(=O)(=O)c1cn(CC(=O)N(C)Cc2ccccc2)cc1S(=O)(=O)NC do in these assays?
TRPML1 inh: -10; Sfp PPTase inh: 1%; ClpP mod: 1.0%; gsp ag: -40%[inhibitor]; gsp antag: 4%; TRPV1 potentiator: 0; Menin-MLL FL inh: 1.6

What do the screens show for `COc1ccc(S(=O)(=O)N2CCCCC2)cc1NC(=O)c1ccc(C)cc1`?
TRPML1 inh: 16; ClpP mod: 21%; gsp ag: 2%; gsp antag: -10%; TRPV1 potentiator: 1

How did CCS(=O)(=O)Nc1ccc(C2=NN(S(C)(=O)=O)C(c3cccs3)C2)cc1 (stereo not given) do in these assays?
TRPML1 inh: 34; Sfp PPTase inh: 22%; ClpP mod: -5.3%; gsp ag: 7%[15.4 µM]; gsp antag: 4%; TRPV1 potentiator: 6; Menin-MLL FL inh: 0.2

Results for N#Cc1c(C(F)(F)F)cc(-c2ccccc2)nc1SCC(=O)Nc1sc2c(c1C#N)CCC2 ?
TRPML1 inh: 2; Sfp PPTase inh: 0%; ClpP mod: -0.2%; gsp ag: -3%; gsp antag: 6%; TRPV1 potentiator: 17; Menin-MLL FL inh: 3.3

How did Cc1cc(C)nc(NC(=NCCc2c[nH]c3ccccc23)NC(=O)Nc2ccc(Cl)c(Cl)c2)n1 do in these assays?
TRPML1 inh: 15; Sfp PPTase inh: 15%; ClpP mod: 1.2%; gsp ag: -30%[inhibitor]; gsp antag: 3%; TRPV1 potentiator: -12; Menin-MLL FL inh: 0.6

Screening results as filed in PubChem.
